VDR inh: vitamin D3 receptor (human) inhibition. VDR-SRC2-3 peptide fluorescence polarization, 2 h. Potency, µM, for inactives: max response, negative = inhibition, hits mostly inhibitors. 0.93% of 400,000 active. AID 504847; active = well fitted inhibition curve with a large enough effect; inconclusive = small, poorly fitted or top-dose-only effect, or another doubt; inactive = no such curve, though single readings can be large or run the other way; also: series mostly up to about 120 µM
Target sequence (P11473 whole entry, looked up): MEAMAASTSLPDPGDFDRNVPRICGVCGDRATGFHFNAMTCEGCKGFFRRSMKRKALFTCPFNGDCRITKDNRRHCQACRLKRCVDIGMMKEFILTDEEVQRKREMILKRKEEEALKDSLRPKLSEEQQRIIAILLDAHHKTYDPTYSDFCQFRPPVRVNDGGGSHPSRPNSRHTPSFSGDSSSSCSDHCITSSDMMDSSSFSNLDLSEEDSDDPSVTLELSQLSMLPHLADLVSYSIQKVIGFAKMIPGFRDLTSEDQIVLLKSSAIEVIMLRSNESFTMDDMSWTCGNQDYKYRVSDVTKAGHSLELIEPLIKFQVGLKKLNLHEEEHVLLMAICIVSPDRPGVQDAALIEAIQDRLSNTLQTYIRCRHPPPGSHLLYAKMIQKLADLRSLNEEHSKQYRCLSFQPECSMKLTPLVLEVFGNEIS
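After 23 nl compound addition and a short centrifugation, plates sat for 2 hours at ambient temperature; polarization of fluorescence then indicated loss of VDR binding to peptide SRC2-3.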
Active calls of the source: *; ? = inconclusive. % is scaled to controls: 0 for no effect and ±100 for the full control effect; potency is read from the fitted curve at half-maximal effect. Some of the compounds tested; the hit share may differ from the screen's.

SMILES	VDR inh
O=C1NCC(=O)N2C(c3ccccc3)c3[nH]c4ccccc4c3C[C@@H]12 (some centres undefined)	-23%
CCCCC(=O)NC1(C(F)(F)F)C(=O)Nc2c1c(=O)[nH]c(=O)n2-c1ccc(C)c(C)c1 (centres undefined)	3%
Cc1ccc(S(=O)(=O)N(CC2CO2)c2cccc([N+](=O)[O-])c2)cc1 (centres undefined)	6%
CC(C)c1ccc(NC(=O)CN2C(=O)COc3ccc(S(=O)(=O)N4CCCCC4)cc32)cc1	-2%
Cc1cnc(SCc2cnc(C)nc2N)nc1	16%
CCN(Cc1ccncc1)Cc1nc(CC2CC2)no1	-2%
Fc1ccc(COc2cccc(-c3n[nH]c(=S)o3)c2)cc1	-15%
CCOC(=O)CN1N=C(/C=C/c2ccc(C(C)C)cc2)CCC1=O	22%
CC(C)C(=O)Nc1cc(-c2nc3ncccc3o2)ccc1Cl	-14%
O=C(Nc1ccc(S(=O)(=O)N2CCCC2)cc1)c1cncc(Br)c1	-3%
CCOc1ccc(OCC)c(S(=O)(=O)NCCCN2CCOCC2)c1	5%
COc1ccc(C(=O)Nn2c(SCC(=O)NCc3ccccc3)nc3ccccc3c2=O)cc1	5%
Cn1ncc2c(Nc3ccc(Br)cc3)nc(Nc3ccc(Br)cc3)nc21	19%
CCOc1ccc(Nc2ccnc3cc(Cl)ccc23)cc1	10%
O=C(Nc1ccc(Cl)cc1)Nc1ccc(-c2cnco2)cc1	4%
CCOc1ncccc1C(=O)NNC(=O)c1cccc(S(=O)(=O)Nc2ccccc2OC)c1	-28%
COc1ccsc1C(=O)N1CCN(Cc2ccc3c(c2)OCO3)CC1	8%
CCN(CC)CCNC(=O)c1cc2c(=O)n(C)c3ccccc3c2s1	15%
CCOCCCNC(=O)c1cc(Sc2ccc(C)cc2)nc2ccccc12	-15%
S=C(NCc1ccccc1)Nc1ccncc1	6%
CN1CCN(C(=O)/C=C/c2cccc(Cl)c2)CC1	11%
COCCn1c(SCC(=O)N2CC(=O)Nc3ccccc32)nc2ccccc21	-28%
O=C1c2[nH]nc(-c3ccccc3O)c2C(c2ccc(Cl)cc2)N1CCc1ccccc1 (centres undefined)	9%
C/C(=N/NC(=O)c1sc(NS(=O)(=O)c2ccccc2)nc1C)c1ccccc1	23%
CC(NC(=O)OC(C)(C)C)C(=O)Oc1ccc2ccc(=O)oc2c1 (centres undefined)	-19%

Some of the entries above in a different format.
molecule | VDR inh
CCOc1ncccc1C(=O)NNC(=O)c1cccc(S(=O)(=O)Nc2ccccc2OC)c1 | -28%
CCCCC(=O)NC1(C(F)(F)F)C(=O)Nc2c1c(=O)[nH]c(=O)n2-c1ccc(C)c(C)c1 (centres undefined) | 3%
CCOC(=O)CN1N=C(/C=C/c2ccc(C(C)C)cc2)CCC1=O | 22%
Cc1ccc(S(=O)(=O)N(CC2CO2)c2cccc([N+](=O)[O-])c2)cc1 (centres undefined) | 6%
O=C(Nc1ccc(S(=O)(=O)N2CCCC2)cc1)c1cncc(Br)c1 | -3%
CCN(CC)CCNC(=O)c1cc2c(=O)n(C)c3ccccc3c2s1 | 15%

New compounds follow.
SMILES	VDR inh
CCCOc1ccc(C(CC(=O)O)NC(=O)c2sc3ccccc3c2Cl)cc1 (centres undefined)	14%
Nc1ccc2c(c1)OC1(CCCCC1)O2	-18%
CC(C)CC1(C)NC(=O)N(CC(=O)Nc2ccc3c(c2)CCC3)C1=O (centres undefined)	-20%
COc1ccc(-c2noc(Cc3ccc(Cl)cc3)n2)cc1OC	-3%
CC(=O)Nc1c(Cl)c2c(c(Cl)c1Br)-c1ccc(Cl)cc1C2	-11%
Cc1cccc(NC(=O)C2(C)Cc3ccccc3C(=O)O2)c1 (centres undefined)	7%
COC(=O)c1sc(=S)n(-c2cc(F)ccc2F)c1N	79µM*
Cc1cccn2cc(CSc3nnc(Nc4ccc(C(C)C)cc4)s3)nc12	-6%
Cc1cccc(NC(=O)C2(c3ccccc3)CC2(Cl)Cl)c1 (centres undefined)	6%
CCC(=O)Nc1ccccc1-c1nc2ccccc2n(CC(=O)c2ccc(Cl)cc2)c1=O	-4%
O=C(Nc1nnc(COc2ccc(F)cc2)s1)c1ccco1	-7%
O=C(Nc1ccc2oc(-c3ccc4ccccc4c3)nc2c1)c1ccccc1F	-1%
CCOC(=O)c1sc(Nc2ccc(C)cc2C)nc1C	19%
CCCn1c(=O)c2sccc2n2c(CCCC(=O)Nc3ccc(C)c(F)c3)nnc12	14%
COc1ccc(C2=N[C@H](c3ccccc3)CO2)cc1	-2%
Cc1ccc(CNC(=O)c2ccc(Cl)cc2[N+](=O)[O-])cc1	-13%
CCOc1ccc(Nc2nc(Cc3nnc(SCC(=O)NCc4ccco4)n3CC)cs2)cc1	-9%
Cn1nc(C(=O)NCc2ccccc2)c2ccccc2c1=O	12%
COc1ccc2nc(N3CCCCC3)c(/C=C3\SC(=S)NC3=O)cc2c1	3%
CCOc1ccc(CN2CCN(Cc3c[nH]c4ccccc34)CC2)cc1	?
CCOc1ccc(N2C(=O)CN(CC(=O)OC)C2=S)cc1	0%
COc1ccc(-c2cc(-c3ccc(Br)cc3)nc3ncnn23)cc1OC	-2%
Cc1ccc(S(=O)(=O)/N=C(/NC(=S)Nc2cccc(C)c2)c2ccccc2)cc1	?
O=C(Nc1c2n(c(=S)n(-c3ccccc3)c1=O)CCCCC2)c1ccccc1	10%
CCOc1ccc(CNC(=O)c2ccc(NC(=O)N3CCSc4ncccc43)cc2)cc1OC	8%

Ordered by SMILES length (ascending): some entries from above
SMILES	VDR inh
COc1ccc(-c2noc(Cc3ccc(Cl)cc3)n2)cc1OC	-3%
O=C(Nc1c2n(c(=S)n(-c3ccccc3)c1=O)CCCCC2)c1ccccc1	10%
Cc1ccc(S(=O)(=O)/N=C(/NC(=S)Nc2cccc(C)c2)c2ccccc2)cc1	?

The list goes on.
SMILES	VDR inh
CN1CCC(Oc2ccccc2Sc2ccc(C(F)(F)F)cc2)CC1	13%
COc1cc(C(=O)N2CCC(c3nc4ccccc4o3)CC2)cc(OC)c1OC	6%
CSc1ccc(CN2CCC(Oc3cccc(C(=O)N4CCCC4)c3)CC2)cc1	7%
NC(=O)N/N=C/C=C/c1ccc(F)cc1	5%
O=C(CCCCC(=O)NCCCc1ccccc1)NCCCc1ccccc1	9%
O=C1c2ccccc2CCC1C(O)c1ccccn1 (centres undefined)	-13%
O=C(O)CC1S/C(=N/N=C/c2ccc(-c3ccccc3[N+](=O)[O-])o2)NC1=O (centres undefined)	79µM*
O=C(c1cccc(F)c1)N1CCN(c2cccc(Cl)c2)CC1	-14%
CC(=O)c1c(O)c2ccccc2n(C)c1=O	8%
Cc1ccc(S(=O)(=O)N(C)Cc2cc3cc(C)ccc3[nH]c2=O)cc1	-3%
Cc1ccc(-c2nc(-c3ccncc3)no2)cc1Cl	2%
Cc1[nH]nc(SCC(=O)Nc2ccc(C#N)cc2)c1[N+](=O)[O-]	-6%
COc1cccc(C(O)c2nc3ccccc3n2C(C)C)c1OC (centres undefined)	2%
CC(=O)c1ccc(S(=O)(=O)Nc2cc3c(cc2C(C)=O)OCO3)cc1	9%
COC(=O)C1=C(C)N(Cc2ccccc2)C(=O)N[C@H]1c1cccs1	-5%
Cc1cc(=O)oc2cc(NC(=O)c3cccc(Br)c3)ccc12	5%
COc1cccc(C(CNC(=O)C(c2ccccc2)c2ccccc2)N(C)C)c1 (centres undefined)	6%
CCCCCCCCCCCCCCCC(=O)C1=C(O)C(CO)OC1=O (centres undefined)	14µM*
CCOc1ccc(NC(=O)c2ccccc2C(=O)c2ccccc2)cc1OCC	-22%
CSc1nc(-c2ccco2)cc(C(F)(F)F)c1C#N	-25%
CN(C)S(=O)(=O)c1ccc(S(=O)(=O)N(Cc2ccco2)Cc2ccccc2Cl)cc1	4%
CCOc1ccc(CN(C)C(=O)c2cccnc2SC)cc1OC	-3%
Cc1cc(C(=O)COC(=O)CNC(=O)c2ccco2)c(C)n1Cc1ccco1	-4%
CC1=Nc2ccc(C)cc2/C1=C/c1c(N)n2c(S(=O)(=O)C(C)C)nsc2nc1=O	-21%
Cc1cccn2c(=O)c3cc(C(=O)NCCN4CCOCC4)c(=N)n(Cc4ccc(F)cc4)c3nc12	-14%

Rewritten with each value named: part of the list above.
CCCCCCCCCCCCCCCC(=O)C1=C(O)C(CO)OC1=O (centres undefined)
- VDR inh: 14µM*

CN1CCC(Oc2ccccc2Sc2ccc(C(F)(F)F)cc2)CC1
- VDR inh: 13%

(continued)
SMILES	VDR inh
CC(C)CCN1C(=O)c2ccccc2CC1(C)C(=O)NC1CCCCC1 (centres undefined)	-9%
O=C(N/N=C/c1ccco1)C1CC1	-1%
O=C(C[n+]1ccccc1)Nc1ccccc1	0%
CCN(CC)CCNC(=O)CS(=O)Cc1nc(-c2ccc(Cl)cc2)oc1C (centres undefined)	8%
NC(=O)C1CCN(C(=S)c2ccc(-c3ccc(Br)cc3)o2)CC1	2%
Cc1ccc(NC(=O)c2cc(S(=O)(=O)NCCC3=CCCCC3)ccc2F)cc1C	-6%
COc1ccc(/C=C/C(=O)Nc2cc(C(F)(F)F)ccc2Cl)cc1	-5%
Cc1cc(NC(=O)CSc2nc(CC(C)(C)C)nc3c2c(=O)n(C)c(=O)n3C)no1	1%
CCOC(CCn1c(SCc2cccc([N+](=O)[O-])c2)nc2ccccc2c1=O)OCC	-6%
CCNC(=O)NC(=O)COC(=O)CCCSc1nc2ccccc2[nH]1	7%
Cc1ccc(S(=O)(=O)N(C)c2ccc(C(=O)NCC(c3ccco3)N(C)C)cc2)cc1 (centres undefined)	-12%
O=C1OC(/C(=C\Nc2ccccc2)[N+](=O)[O-])c2ccccc21 (centres undefined)	3%
CC(C)NC(=O)c1onc(CSc2ccccc2F)c1C(=O)O	-18%
Cc1oc2ncnc(N3CCOCC3)c2c1C(=O)NCCc1ccccc1	9%
O=C(CCCNC(=O)c1ccc(Cl)cc1)Nc1ccccc1C(F)(F)F	-6%
CCOC(=O)[C@H]1[C@H]2COc3cc(OC)ccc3[C@@H]2N2C(=O)c3ccc(C)cc3NC(=O)[C@@]12C	0%
CCN(CC)S(=O)(=O)c1cc(-c2onc(C)c2C)ccc1OC	10%
Cc1cc(C)c(NC(=O)CSc2nccn2-c2cccc(Cl)c2)c(C)c1	13%
COc1ccc(-c2nc3ccccc3c(=O)n2CCOc2ccccc2C)cc1	-9%
Cc1ccc(S(=O)(=O)NC(=O)c2ccc(-c3ccc(C)c4ccccc34)o2)cc1	79µM*
Cc1cccnc1CCNC(=O)C1CCC(=O)N(Cc2cccc(F)c2)C1 (centres undefined)	-21%
CC(C)(C)C(=O)c1cnc(Nc2ccccc2Cl)s1	2%
COc1ccc2ccc3c(c2c1)N=C[C@]1(O3)N(C)c2ccccc2C1(C)C	-12%
COCCn1ccc2c(OCC(=O)NCc3ccc(C)cc3)cccc2c1=O	14%
C[C@H](CO)N1C[C@H](C)[C@@H](CN(C)C(=O)Nc2ccc(C(F)(F)F)cc2)Oc2c(NC(=O)c3ccncc3)cccc2C1=O	17%
SMILES	VDR inh
CCOc1ccc(N2CC(c3nc4ccccc4n3CCOc3ccc(OC)cc3)CC2=O)cc1 (centres undefined)	14%
COc1cccc(-c2[nH]nc3c2C(c2ccsc2)C(C#N)=C(N)O3)c1 (centres undefined)	-22%
Cc1cc(=O)c(C(=O)O)cn1Nc1ccc(Cl)cc1	4%
CCc1nnc(NC(=O)CSc2nc(-c3ccccc3)cc(-c3ccc(F)cc3)c2C#N)s1	-15%
O=C(Nc1cccc([N+](=O)[O-])c1)c1ccc2c(c1)C(=O)N(c1ccccn1)C2=O	-12%
COC1OC(CO)C(O)C(O)C1O (centres undefined)	-15%
O=C(Oc1ccc(Cl)c2ccccc12)N1CCCCC1	-20%
O=C(NCc1nnc(SCC(=O)N2CCCCCC2)o1)c1ccc(F)cc1	11%
COC(=O)C1=C(O)/C(=C\c2ccc(CNC(=O)C(=O)Nc3ccc(C)cc3)o2)N=C1C	16%
COc1cc(CC(=O)O)c(C(C)=O)cc1OC	-5%
O=C(NNC(=O)C1CCC(C(=O)NNC(=O)c2cccs2)CC1)c1cccs1 (centres undefined)	4%
O=C(Nc1ccc(Cl)cn1)c1ccccc1SCc1ccccc1	?
O=C(NN1CC(=O)N(c2cc(Cl)cc(Cl)c2)CC1=O)c1cccs1	-4%
Cc1ccc(Cl)cc1N1C(=O)N(Cc2ccc(C#N)cc2)c2ccccc2S1(=O)=O	9%
COCCNC(=O)c1nc2c(nnn2Cc2cc(C)ccc2C)c(=O)[nH]1	6%
C#CCOCCOCCOCCNc1nc(N2CCN(C(=O)C([C@@H](C)O)n3cc([C@@H](N)CCCCN)nn3)CC2)nc(N2CCN(C(=O)C([C@@H](C)O)n3cc([C@@H](N)CCCCN)nn3)CC2)n1 (some centres undefined)	-6%
CCOc1cc(/C=C(\C#N)C(=O)Nc2ccccc2C(=O)O)ccc1OC(=O)c1ccc(C)cc1	?
O=[N+]([O-])c1cccc(/C=C/c2ccccn2)c1	6%
Nc1nnc(SCc2cccnc2)s1	-4%
COc1cc(CC(=O)Nc2ccc3nc(C)sc3c2)cc(OC)c1OC	3%
COc1ccc2c(c1)c1ccccc1n2C	42%
COCP(=O)(c1ccccc1)c1ccccc1	-1%
O=C(c1ccccc1)N1CCN(S(=O)(=O)c2cccs2)CC1	2%
O=C(NCc1nc2ccccc2[nH]1)c1ccc(Cl)c(S(=O)(=O)N2CCCC2)c1	9%
O=c1c(-c2ccc(Br)cc2)[n+]([O-])c2ccccc2n1OCc1ccccc1	-3%
SMILES	VDR inh
Cc1ccc(NC(=O)CSc2nncn2C)c(C)c1	-12%
CC1=C(C(=O)Nc2ccccc2C(=O)N2CCCCC2)SCCO1	-2%
CCOC(=O)c1ccc2c(c1)N(CC(=O)Nc1ccc(CC)cc1)C(=O)c1ccccc1S2	14%
CCOC(=O)COc1ccc(-c2nnc(-c3ccccc3)o2)cc1	-3%
COc1ccc(N2CCN(c3nc4c(C)cccn4c(=O)c3C=C(C#N)C#N)CC2)cc1	-1%
CCS(=O)(=O)c1ccc(N=Nc2ccc(O)c3ncccc23)c(OC)c1	-8%

Bioassay records: PubChem BioAssay, National Center for Advancing Translational Sciences (NCATS)
